# Compound activity from PubChem.
# LASV entry inh: blocks Lassa virus binding to or entry into cells. 300,000 compounds, 1.2% hits. Potency, µM (series often up to 37.9 µM), inactives show top-dose activity change, negative = inhibition, usual class: inhibitors. Lassa virus pseudotype entry inhibition, cell reporter; control for the full effect not named in the record; active means well fitted inhibition curve with a large enough effect; inconclusive means small, poorly fitted or top-dose-only effect, or effect the other way; inactive means flat fitted curve, though single readings scatter; tested in HEK293 cells; note: % is set by controls: 0 for no effect and ±100 for the full control effect; nearly all actives have a fitted effect of over 50% in size; luciferase read-out
# Cruzain inh Det: blocks cruzain activity in presence of Triton detergent | P25779 | purified cruzain, Z-FR-AMC fluorescence, 0.01% Triton | Potency, µM, for the others: max response, negative = inhibition, actives largely listed as inhibitors | 200,000 compounds, 0.43% hits;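 note: plate controls were neutral wells for no effect and buffer without enzyme for full effect; nearly all actives have a fitted effect of over 40% in size; top concentration of the series not given in the record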
# Target sequence (P25779 123-467 limits assumed): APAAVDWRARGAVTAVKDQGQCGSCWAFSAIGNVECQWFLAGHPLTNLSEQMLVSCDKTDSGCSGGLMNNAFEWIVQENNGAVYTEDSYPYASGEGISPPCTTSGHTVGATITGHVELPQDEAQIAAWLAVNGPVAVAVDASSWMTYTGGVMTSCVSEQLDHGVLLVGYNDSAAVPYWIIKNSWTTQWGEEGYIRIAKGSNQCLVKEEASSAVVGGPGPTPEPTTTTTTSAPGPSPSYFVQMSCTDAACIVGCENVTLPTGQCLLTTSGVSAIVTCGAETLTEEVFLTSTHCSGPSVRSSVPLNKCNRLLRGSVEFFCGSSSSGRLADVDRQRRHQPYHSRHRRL
#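 Compounds were screened in titration against cruzain (1.5 nM) with 0.01% Triton X-100 to counter colloidal aggregation. Activity was the AMC fluorescence increase over 60 s after adding 2 uM Z-FR-AMC at pH 5.5.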
# StopGo reporter: FMDV 2A StopGo reporter, luciferase signal. human cells with a luciferase reporter of 2A StopGo recoding; control for the full effect not named in the record. Potency, µM (series often up to 57.9 µM), for the others: top-dose signal change, negative = less light. 410,000 compounds, 1.2% hits. AID 1159524; active = well fitted falling curve with a large enough effect; inconclusive = small, poorly fitted or top-dose-only effect; inactive = no such curve, though single readings can be large or run the other way; tested in HEK293T cells; note: % is set by controls: 0 for no effect and ±100 for the full control effect; nearly all actives have a fitted effect of over 45% in size; luciferase light after 4 h
# NS1 inh: influenza NS1 inhibition; S. cerevisiae slowed by influenza A NS1, growth recovery by OD600; Potency, µM (top dose mostly 46.1 µM), inactives show top-dose activity, positive = more growth; 270,000 compounds, 0.4% hits; AID 2326; active means well fitted rising curve with a large enough effect; inconclusive means small, poorly fitted or top-dose-only effect; inactive means no such curve, though single readings can be large or run the other way; note: nearly all actives have a fitted effect of over 50% in size
#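 OD600 was taken as the measure of yeast growth restored by compound in an NS1-expressing S. cerevisiae strain. Cells had been washed out of glucose medium and diluted 1:100 into galactose -URA medium, pH 6.0.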
# RE007 growth inh: less growth of the S. pombe RE007 Vpr strain | S. pombe RE007 Vpr strain, BacTiter-Glo ATP luminescence, 24 h; control for the full effect not named in the record | Potency, µM (top dose mostly 92.2 µM), for inactives: top-dose activity change, negative = less growth | 360,000 compounds, 0.21% hits | AID 651644; active = well fitted falling curve with a large enough effect; inconclusive = small, poorly fitted or top-dose-only effect; inactive = no such curve, though single readings can be large or run the other way;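 note: % is set by controls: 0 for no effect and ±100 for the full control effect; nearly all actives have a fitted effect of over 50% in size; the assay follows cell death caused by Vpr and the record does not say whether a fall means rescue or toxicity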
#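 Fission yeast strain RE007, carrying one chromosomally integrated HIV-1 vpr copy, was seeded at OD 0.01 in PMG+AL medium with 23 nL pinned compound. After 24 h at 30 °C and 99% humidity, viability was read by BacTiter-Glo luminescence.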
# Cruzain noTriton: inhibitors of Trypanosoma cruzi cruzain without detergent; 200,000 compounds, 2.3% hits; purified cruzain, Z-FR-AMC fluorescence, no detergent; AID 1476; Potency, µM, inactives show max response, negative = inhibition, most hits filed as inhibitors;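 note: plate controls were enzyme without inhibitor for no effect and buffer without enzyme for full effect; nearly all actives have a fitted effect of over 40% in size; top concentration of the series not given in the record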
#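 Purified cruzain at 1.5 nM, pre-incubated 15 min with compound at room temperature in 100 mM sodium acetate pH 5.5, 5 mM DTT, 0.00005% Triton X-100. Reaction started with 2 uM Z-FR-AMC; AMC fluorescence increase over 60 s gives rate.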
# SARS PLpro yeast: blocks SARS-CoV papain-like protease in a yeast assay; S. cerevisiae expressing SARS-CoV PLpro, growth rescue; control for the full effect not named in the record; Potency, µM (titrated, usually from 32.9 µM), inactives show top-dose activity, positive = growth rescue; 330,000 compounds, 0.19% hits; AID 485353; active means well fitted rising curve with a large enough effect; inconclusive means small, poorly fitted or top-dose-only effect; inactive means no such curve, though single readings can be large or run the other way; note: 0% is about no effect; nearly all actives have a fitted effect of over 55% in size; growth read by luminescence after 48 h
# Marburg entry inh: blocks Marburg virus binding to or entry into cells | Marburg virus pseudotyped entry inhibition, cell reporter; control for the full effect not named in the record; about a third of the inactives were read at about 46 µM | 300,000 compounds, 1.8% hits | Potency, µM (titrated, usually from 37.8 µM), inactives show top-dose activity change, negative = inhibition, most hits filed as inhibitors | AID 540276; active = well fitted inhibition curve with a large enough effect; inconclusive = small, poorly fitted or top-dose-only effect, or effect the other way; inactive = flat fitted curve, though single readings scatter; tested in HEK293 cells; about a fifth of its hits are not listed in these tables; note: % is set by controls: 0 for no effect and ±100 for the full control effect; luciferase read-out
# The depositor's hits bear a star; ? = inconclusive; . = not tested or not shown; & = joins results of further samples; [ ] = dose if it differs, or a comment. Unless noted, calls come from the whole dose curve; as a rule, active = well fitted curve in the direction sought with a large enough effect; inconclusive = small, poorly fitted or top-dose-only effect, or another doubt; inactive = no such curve, though single readings can be large; an effect the other way counts as inactive or inconclusive. Potency is the fitted concentration of half-maximal effect.
SMILES,LASV entry inh,Cruzain inh Det,StopGo reporter,NS1 inh,RE007 growth inh,Cruzain noTriton,SARS PLpro yeast,Marburg entry inh
CC(/C=C1\SC(=S)N(NC(=O)c2ccc(C)cc2)C1=O)=C\c1ccccc1,?,-6.0%,12%,8%,-1%,32µM*,-4%,?
CCNC(=O)COC(=O)C1C(C(=O)OCC)=C(C)NC(C)=C1C(=O)OCC,3%,4.7%,-10%,-16%,10%,10%,1%,22%
COc1ccc(NC(=O)c2c(Cl)nc3ccccn23)cc1,?,.,9%,-17%,-5%,.,-5%,13%[46.1 µM]
CCCC(=O)N1CCc2[nH]c3ccccc3c2C1,-1%,2.2%,-5%,-7%,-6%,2%,1%,15%&15%
Cc1ccc(Sc2cc(NCCCO)c([N+](=O)[O-])c3nonc23)cc1,.,.,?,-6%,2%,.,3%,.
O=C1CCC(C(=O)N2CCOCC2)CN1Cc1ccc(Cl)cc1 (stereo not given),.,.,-26%,1%,4%,.,8%,.
CC(OC(=O)c1cccs1)C(=O)NC1CC1 (stereo not given),?,.,49%[activator],0%,1%,.,0%,14%[46.1 µM]
CC(C)(C)c1nnc(NC(=O)COc2ccc3c(c2)OCO3)s1,-20%[46.1 µM],.,49%[activator],.,?,.,-2%,?
Cc1ccc2c(c1)c(C)cc(=O)n2CCC(=O)O,?,12%,.,4%,23%,0%,-1%,-11%
CCOCC(=O)Nc1nnc(COc2ccc(Cl)cc2)s1,7%,5.6%,-16%,-51%,-17%,4%,0%,-24%
COc1ccc(CCNC(=S)Nc2ccc(S(=O)(=O)Nc3ncccn3)cc2)cc1OC,.,.,6%,1%,1%,.,2%,.
CCOc1cc(C(=O)NCCCn2ccnc2)cc(OCC)c1OCC,12%,-1.9%,-18%,-6%,-2%,17%,5%,?
O=C(CSc1nnc(-c2ccncc2)n1Cc1ccccc1)NC1CCCCC1,.,.,-5%,-2%,-11%,.,1%,.
COc1ccc(-c2cc(CNS(=O)(=O)c3ccccc3)on2)cc1,?,.,5%,.,0%,.,-3%,?
COc1ccccc1C(=O)NCCC(=O)Nc1ncccc1C,11%,.,0%,16%,-2%,.,-3%,2%
O=C1NC(=O)c2cc(NC(=O)c3cccc4ccccc34)ccc21,.,.,4%,1%,6%,.,0%,.
CCCCn1c(=O)[nH]c(=O)c2c1nc(-c1ccsc1)n2Cc1ccccc1,?,-5.9%,?,8%,0%,-3%,-3%,?
O=[N+]([O-])c1cccc(C2=NC(c3ccccc3)CO2)c1 (stereo not given),-6%,-5.1%,68%[activator],5%,-5%,?,-5%,9%
Cc1ccc(CN2CCN(C(=O)CCc3ccccc3)CC2)cc1,?,.,-10%,3%,4%,.,0%,-6%
CC1CC(C)CN(C(=O)COC(=O)Cc2ccc(Br)cc2)C1 (stereo not given),9%[46.1 µM],.,-16%,-5%,-3%,.,1%,-12%[46.1 µM]
CCOC(=O)c1cc(-c2ccc(C)cc2)n(CC(=O)Nc2cccc(C(C)=O)c2)c1C,.,-6.9%,16%,.,.,?,.,?
COc1ccc(CNc2nc(NCc3ccc(OC)cc3)c3[nH]cnc3n2)cc1,.,.,-19%,-7%,1%,.,0%,.
COc1ccccc1CC(=O)N1CCC(CCC(=O)NC2CC2)CC1,-2%[46.1 µM],.,20%,1%,3%,.,2%,-7%[46.1 µM]
O=C(NCc1ccccn1)c1cc(S(=O)(=O)N2CCCCCC2)ccc1Cl,-23%,.,-13%,-3%,4%,.,0%,-28%
COc1cc2ccccc2cc1C(=O)Nc1ccncc1,25%,.,7%,.,-10%,.,-16%,?
CCOc1ccc(-c2nc(C#N)c(N3CCCCCC3)o2)cc1,.,-25%,-25%,-32%,-9%,4%,-27%,.
O=C(CNC(=O)C1CCCCC1)OCC(=O)c1ccc(Br)cc1,.,.,0%,10%,0%,.,2%,.
O=C(Nc1ccc(F)cc1C(F)(F)F)C1CCN(c2ncccn2)CC1,17%[46.1 µM],-0.9%,-21%,.,.,-2%,.,-11%[46.1 µM]
CC[C@]12c3[nH]c4ccc(OC)cc4c3CCN1C(=O)C(CC(=O)NCc1ccco1)C[C@@H]2C(=O)N1CCN(C(=O)c2ccco2)CC1 (stereo not given in full),.,.,-6%,.,18%,.,0%,-2%
O=C(COC(=O)Cn1nnc(-c2ccccc2)n1)Nc1cc(F)ccc1F,2%,.,-23%,.,-22%,.,-3%,20%
CCOC(=O)N1CCN(CC(O)COc2ccc(C)c(C)c2)CC1 (stereo not given),.,.,-21%,0%,0%,.,2%,.
Cn1ccnc1SCC(=O)Nc1nc2ccccc2s1,.,.,69%[activator],-5%,-9%,.,0%,.
CCCNC(=O)c1ccc2c(c1)C1C3CCC(C3)C1C(c1ccccc1)N2 (stereo not given),?,-1.5%,?,10%,-16%,-28%,-15%,-24%
c1ccc2c(-c3cncc4ccccc34)cncc2c1,?,.,-15%,.,17%,.,.,13µM*
COc1cccc(OC)c1C(=O)Nc1ccccc1N1CCCC1,32%,-1.6%,-17%,3%,9%,2%,5%,-20%
O=C1c2ccccc2S(=O)(=O)N1CC(O)Cn1ccc2ccccc21 (stereo not given),15%,-1.6%,7%,7%,3%,?,.,?
O=C(CSC1=NS(=O)(=O)c2ccccc2N1)c1ccccc1,13%[46.1 µM],.,34%[activator],.,18%,.,-1%,-1%
O=C(N=C1SC2CS(=O)(=O)CC2N1c1ccc(Cl)cc1Cl)C1CCCO1 (stereo not given),.,.,-9%,2%,9%,.,0%,.
CN(C)CCNc1ccc2nnn3c4ccc(O)cc4c(=O)c1c23,-12%,.,-12%,.,-4%,.,.,?
Cc1cc(C)c(C#N)c(N2CCN(c3ccccc3)CC2)n1,.,.,-26%,-39%,-18%,.,-2%,.
CCN1CCCC1CNCc1cc(OC)c(OC)c(OC)c1 (stereo not given),-5%,2.5%,-22%,4%,18%,-5%,8%,15%
N#Cc1nc(-c2ccc(OCc3ccc(Cl)cc3)cc2)oc1N1CCC(C(N)=O)CC1,1%,1.0%,.,-6%,-12%,-12%,0%,-6%&-6%
O=C(C1=C[C@H](c2ccc(C(F)(F)F)cc2)C[C@H](OCc2ccc(CO)cc2)O1)N1CCN(Cc2ccccc2)CC1,.,.,-27%,-8%,-19%,.,-2%,.
Cc1ccc(NC(=O)CSc2nc3[nH]ncc3c(=O)[nH]2)cc1Cl,?,.,3%,.,4%,.,1%,-2%[46.1 µM]
O=C(C[n+]1cc(-c2ccc(Cl)c(Cl)c2)n2c1CCC2)OCc1ccccc1,-13%,-3.1%,-12%,1%,-24%,-9%,9%,9%
O=S(=O)(NCC(c1ccco1)S(=O)(=O)c1cccs1)c1ccccc1 (stereo not given),4%[46.1 µM],-0.3%,21%,.,.,2%,.,.
CCN1CCN(CCCCSc2ccccc2)CC1,.,-0.7%,.,3%,.,-10%,-22%,.
CCOC(=O)N1CCN(S(=O)(=O)c2ccc(Br)cc2)CC1,.,.,-16%,-11%,4%,.,-6%,.
COc1ccc(-n2c(=O)c3c4c(sc3n(Cc3ccc(F)cc3)c2=O)CN(C(C)=O)CC4)c(OC)c1,.,9.5%,-6%,.,.,3%,.,35%[46.1 µM]
CCCOc1ccc(C2c3c(-c4ccccc4O)n[nH]c3C(=O)N2Cc2ccncc2)cc1OCC (stereo not given),?,9.0%,-18%,.,.,?,.,13%[46.1 µM]

# Next results follow.
SMILES,LASV entry inh,Cruzain inh Det,StopGo reporter,NS1 inh,RE007 growth inh,Cruzain noTriton,SARS PLpro yeast,Marburg entry inh
CCN1C(=O)c2c(C)nc3ccccc3c2C1=O,10%,0.1%,-8%,-12%,-1%,7%,-2%,18%
COc1ccccc1NC(=O)OC(C)c1ccc(Cl)cc1 (stereo not given),-3%,.,-6%,-38%,13%,.,-53%,-20%[46.1 µM]
COC(=O)C1C(=O)OC(C)(C)C1C(C)C(=O)c1ccc(C)cc1C (stereo not given),1%,.,-12%,1%,5%,.,0%,6%[46.1 µM]
CCOc1ccc(NC(=O)CN(C)S(=O)(=O)c2cccc3cccnc23)cc1,.,.,13%,-2%,-8%,.,-1%,.
Cc1ccc2cccc(NC(=O)c3ccc(-c4cc(Cl)ccc4Cl)o3)c2n1,3%[46.1 µM],1.2%,-7%,.,.,2%,.,7%[46.1 µM]
Cc1ccc(-c2cnc(C3CC3)o2)cc1S(=O)(=O)Nc1cccc(C#N)c1,-12%[46.1 µM],-0.1%,20%,.,.,-6%,.,.
CSCCC(NS(=O)(=O)c1ccc(C)cc1)C(=O)NC1CCCCCC1 (stereo not given),0%,.,18%,.,1%,.,-12%,-23%
CC1CCc2sc(C(=O)NCCCn3ccnc3)cc2C1 (stereo not given),.,.,1%,9%,4%,.,1%,.
CCOC(=O)C(C)On1c(SC(C)C(=O)OCC)nc2ccccc2c1=O (stereo not given),8%,-1.8%,-1%,-13%,6%,21%,15%,16%
CCn1c(Cc2ccccc2)nnc1SCC(=O)N1CCCC1=O,-1%,.,-11%,-6%,10%,.,3%,-28%
COc1ccccc1NC(=O)COc1ccc(/C=N/NC(=O)CSCc2cc(C)cc(C)c2)cc1,-6%,-5.0%,?,1%,-10%,0%,-2%,?
Cn1nc(C(=O)N2CCN(c3ccc(F)cc3)CC2)c2c1-c1ccccc1S(=O)(=O)C2,?,.,-29%,-14%,6%,.,1%,14%[46.1 µM]
CC(C)N(C(=O)CSc1nnnn1-c1ccc2c(c1)OCO2)C(C)C,0%[46.1 µM],.,-5%,0%,-8%,.,0%,-11%[46.1 µM]
O=[N+]([O-])c1ccc(/C=N\NS(=O)(=O)c2ccc(F)cc2)o1,-8%,.,-1%,-45%,?,.,-11%,-2%
Cc1sc2nc(CN3CCOCC3)nc(N3CCC(C(N)=O)CC3)c2c1C,17%,3.3%,4%,-3%,5%,-5%,0%,2%
